# Mtb H37Rv = Mycobacterium tuberculosis H37Rv growth inhibition, cell based, confirmatory dose response (AID 1949). M. tuberculosis H37Rv growth inhibition. most inactive calls were filed without a number and no value below 0 was filed. inhibition, % at 10 µg/mL; hits with a dose series show IC50 in µg/mL. actives 1.6% (n = 100,000);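 active = confirmed in a dose series; inconclusive = about 50% or more but not retested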;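 also: bacteria grown 7 days with compound before Alamar blue readout; 0% = untreated bacteria and 100% = reference antibiotic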
# Starred values were filed as active, the others as inactive; i = inactive; ? = inconclusive.
SMILES,Mtb H37Rv
OCCNCc1ccc(OCc2ccc(Cl)cc2Cl)cc1,?
Cc1nc2cc(NC(=O)N3CC4(C)CC3CC(C)(C)C4)ccc2o1 (stereo not given),i
CCOc1ccc(C(=O)c2ccncc2)cc1,6%
CC(Oc1ccc(F)cc1)C(=O)N1CCN(C(c2ccccc2)c2ccccc2)CC1 (stereo not given),i
CCc1ccc(C(=O)Nn2cnnc2)cc1,i
COc1ccccc1N(CC(=O)Nc1ccc(I)cc1C)S(C)(=O)=O,i
O=C(NC(c1ccccc1)c1ccc2cccnc2c1O)c1ccccc1 (stereo not given),i
CC(NCC(O)COc1ccc(Br)cc1)c1ccccc1 (stereo not given),15%
Cc1ccc(OCCN2CCN(c3nc(NCc4ccco4)c4ccccc4n3)CC2)cc1,6.3µg/mL*
O=C(NC1C2CC3CC(C2)CC1C3)c1ccc(Br)o1 (stereo not given),i
CSc1ccccc1-n1nnnc1SCc1ccccc1,i
Cc1cccc(NC(=O)NCCN2CCN(c3ccc([N+](=O)[O-])cc3)CC2)c1C,i
O=C(Nc1cnccn1)c1ccncc1,i
Cc1cccc(Cc2cnc(NC(=O)c3ccccc3)s2)c1,i
Cc1cc(Cl)c(S(=O)(=O)Nc2ccc(I)cc2)cc1OCC(N)=O,i
COc1ccc(CCCc2nnc(SCC(=O)NCCc3ccccc3)n2C)cc1,i
O=C(Nc1ccc(Cl)cc1Cl)C(=O)N1CCCCC1,0%
COc1ccc(CCNC(=O)C23CCC(C)(C(=O)C2=O)C3(C)C)cc1OC (stereo not given),i
N#CCCN(Cc1ccco1)C(=S)Nc1ccccc1,i
N#Cc1nc(-c2ccccc2Cl)oc1N1CCCC1,i
O=c1oc2ccccc2cc1-c1nnc(-c2ccncc2)o1,i
CC(=O)CCc1ccc(OCCCCn2cncn2)cc1,i
CCOCC(=O)Nc1ccc(OCC)cc1,?
Cc1nc(NC(=O)c2ccccc2[N+](=O)[O-])ccc1I,i
Cc1cccc(NC(=O)c2cc3c([nH]c4ccccc43)c(C)n2)c1C,i
O=C(Nc1ccc2oc(-c3cc(I)ccc3Cl)nc2c1)c1ccco1,26%
CCOc1ccc(OCCn2ccnc2)cc1,i
Cc1ccccc1OCC(=O)NC(C)c1ccccc1 (stereo not given),8%
CN(CC(=O)NCCc1ccccc1)S(=O)(=O)c1ccc(Cl)cc1,i
COc1ccc(C2CC(=O)Oc3ccc(C(C)(C)C)cc32)cc1 (stereo not given),5%
COc1cccc(OCC(O)CN2CCN(C)CC2)c1 (stereo not given),i
CSc1cccc(NC(=O)C(C)Sc2ccc(C)cc2)c1 (stereo not given),i
O=C(c1ccc2c(c1)OCO2)N1CCC(CN2C(=O)c3cccc4cccc(c34)C2=O)CC1,i
S=C(NCc1ccccn1)Nc1ccc(Br)cc1Cl,i
CCOC(=O)COc1cc(C=O)ccc1OC,i
CCC(C)c1ccccc1OCC(=O)Nc1cc([N+](=O)[O-])ccc1OC (stereo not given),i
CN1CCC(OC(=O)c2cccc(Br)c2)CC1,i
CCCn1c2ccccc2c2nnc(SCC(=O)N=C3NC(=O)CS3)nc21,i
CCOC(=O)CCc1c(C)c2ccc(OC(C)C(=O)OCC)c(C)c2oc1=O (stereo not given),?
O=C(CSC1=NCCS1)NC1CCCCC1,2%
O=C(NCc1ccc(F)cc1)C(=O)NC1CC1,0%
CC1CC(OCC(O)CN2CCN(Cc3ccccc3)CC2)CC(C)(C)C1 (stereo not given),i
CCc1nccn1C(=O)c1cnn2c(C(F)F)cc(-c3ccc(C)cc3)nc12,i
O=C1CC(c2cccs2)Cc2nc(NCCN3CCOCC3)ncc21 (stereo not given),i
COc1ccc(NC2CC(=O)N(c3cccc(C(F)(F)F)c3)C2=O)cc1 (stereo not given),i
O=C(NC(=S)Nc1ccccc1N1CCCC1)c1ccco1,16%
COc1ccccc1NC(=O)CSCC#N,i
COc1ccc(S(=O)(=O)N(C)CC(=O)N2CCN(C(c3ccccc3)c3ccccc3)CC2)cc1OC,i
CC1CCCCN1CCCn1c(=S)[nH]c2ccccc2c1=O (stereo not given),i
CNC(=O)C(=O)Nc1cc(C)cc(C)c1,i

# Later entries.
SMILES,Mtb H37Rv
Fc1ccc(N2CCN(Cc3cccc(C(F)(F)F)c3)CC2)cc1,i
COc1ccc(OC)c(S(=O)(=O)N(C)c2ccccc2C(=O)O)c1,i
O=C(c1cccs1)N1CCN(CCc2ccccc2)CC1,i
Cc1cc(=O)n2[nH]c(COc3ccccc3)nc2n1,i
Cc1sc2[nH]c(=O)n(-c3cccc(Cl)c3)c(=O)c2c1C,1%
COC(=O)Cn1cc(C=O)c2ccccc21,i
Cc1ccc2occ(C3Nc4cc(C)c(C)cc4NC4=C3C(=O)CC(C)(C)C4)c(=O)c2c1 (stereo not given),i
Brc1cccc(CNCCc2c[nH]c3ccccc23)c1,1%
Nc1ccc2nc(SCC(=O)Nc3ccccc3[N+](=O)[O-])sc2c1,0%
Cc1c(NC(=O)CSC2CCCCC2)c(=O)n(-c2ccccc2)n1C,i
NC(=O)c1ccccc1NC(=O)c1ccc(-c2cccc(Cl)c2Cl)o1,8%
Cc1ccc(CNS(=O)(=O)c2ccc3ccccc3c2)cc1,5%
CC(C)Cc1nc2ccccc2n1CC(=O)O,i
O=C(COc1ccc(F)cc1)N1CCCCCC1,i
CCN(CC(=O)NC)S(=O)(=O)c1ccc(Cl)cc1,i
Cn1c(SCc2ccc(C#N)cc2)nnc1-c1cccs1,i
COc1ccc(-c2nn(-c3ccccc3)cc2C(=O)N2CCCCC2)cc1OC,i
O=C1CCCC2=C1C(c1ccc(OCc3c(F)cccc3Cl)cc1)C1=C(CCCC1=O)N2,2%
COC(=O)c1cccc(-c2ccc(OC)cc2)c1,i
Cn1c(=O)[nH]c(=O)c2c1nc(N1CCOCC1)n2CCCSc1nc2ccccc2s1,5%
CCn1c(CNC(=O)Cc2ccc(OC)cc2)nnc1SCC(=O)Nc1ccc(C(=O)O)cc1,i
Cc1ccccc1NC(=S)Nc1ccccc1-c1ccccc1,i
C=CCN(CC=C)CCCOc1ccc(OC)cc1,i
COc1ccc(C2C3C(=O)N(Cc4ccccc4)C(=O)C3ON2c2ccccc2)cc1O (stereo not given),0%
O=C1CCC(=O)N1N1C(=O)C2C3c4ccccc4C(c4ccccc43)C2C1=O (stereo not given),i
O=C(OCc1ccccc1)c1ccc(Br)o1,i
COC(=O)c1c(NC(=O)COc2ccccc2Cl)sc2c1CCCCC2,3%
O=C(Nc1nccs1)c1cccc(NC(=O)C2CC=CCC2C(=O)O)c1 (stereo not given),i
COC(=O)Cc1ccc(NC(=S)NCc2cccs2)cc1,i
COc1cccc(OC)c1C(=O)Nc1nc2c(s1)CCCC2,i
C/C=C/c1ccc(OCCNC(C)CC)c(OC)c1 (stereo not given),i
Cc1cc(OC(C)C(=O)Nc2cc([N+](=O)[O-])ccc2C)ccc1Cl (stereo not given),i
O=C1CCCN1CCCNc1ncnc2c1cnn2-c1ccc(Cl)cc1,i
O=C(Nc1cccc(I)c1)c1ccc2c(c1)C(=O)N(Cc1cccnc1)C2=O,i
O=C(Nc1ccc(Br)cc1F)C1CCN(C(=O)c2ccc(Cl)cc2Cl)CC1,i
CCCCOc1cccc(C(=O)NC(=S)Nc2cc(Cl)ccc2OC)c1,i
CCCCC(=O)Nc1cccc(NC(=O)COc2ccc(CC)cc2)c1,5%
CC(C)c1ccc(C(=O)Nc2ccc(F)c(F)c2)cc1,i
Cc1ccc(C(=O)N2CCN(c3ccc(NC(=O)c4ccccc4)cc3)CC2)cc1,i
O=C(Nc1nc2ccccc2c(=O)[nH]1)c1ccc(Cl)cc1,3%
Cc1cc(C)c(S(=O)(=O)Nc2ccc(O)c(-c3c(O)ccc4ccccc34)c2)cc1C,i
CCCCC(=O)Nc1cccc(NC(=S)NC(=O)c2ccc(F)cc2)c1,12%
COc1ccc(CCNc2ncnc3ccc(I)cc23)cc1OC,0%
Cc1c(NC(=O)Nc2ccc(F)c(Cl)c2)cccc1[N+](=O)[O-],18%
CC(C)c1nnc(NC(=O)c2cc(Cl)ccc2Cl)s1,i
CN1CCCCC1C#CC(O)(c1ccccc1)c1ccccc1 (stereo not given),3%
O=C1CCN(S(=O)(=O)c2ccccc2)C2CCCCC12 (stereo not given),i
COC(=O)Nc1ccc(S(=O)(=O)N2CCCC(C(=O)Nc3cccc(OC)c3)C2)cc1 (stereo not given),i
Cc1ccc(C)c(Oc2coc3cc(OCCc4ccccc4)ccc3c2=O)c1,0%
Cn1c(SCC(=O)NC2CCCCC2)nnc1-c1ccc([N+](=O)[O-])cc1,i

# Some of the entries so far, bar-delimited.
molecule | Mtb H37Rv
O=C(Nc1nccs1)c1cccc(NC(=O)C2CC=CCC2C(=O)O)c1 (stereo not given) | i
COC(=O)Cc1ccc(NC(=S)NCc2cccs2)cc1 | i
COc1cccc(OC)c1C(=O)Nc1nc2c(s1)CCCC2 | i
C/C=C/c1ccc(OCCNC(C)CC)c(OC)c1 (stereo not given) | i
Cc1cc(OC(C)C(=O)Nc2cc([N+](=O)[O-])ccc2C)ccc1Cl (stereo not given) | i
O=C1CCCN1CCCNc1ncnc2c1cnn2-c1ccc(Cl)cc1 | i
O=C(Nc1cccc(I)c1)c1ccc2c(c1)C(=O)N(Cc1cccnc1)C2=O | i
O=C(Nc1ccc(Br)cc1F)C1CCN(C(=O)c2ccc(Cl)cc2Cl)CC1 | i
CCCCOc1cccc(C(=O)NC(=S)Nc2cc(Cl)ccc2OC)c1 | i
CCCCC(=O)Nc1cccc(NC(=O)COc2ccc(CC)cc2)c1 | 5%
CC(C)c1ccc(C(=O)Nc2ccc(F)c(F)c2)cc1 | i
Cc1ccc(C(=O)N2CCN(c3ccc(NC(=O)c4ccccc4)cc3)CC2)cc1 | i
O=C(Nc1nc2ccccc2c(=O)[nH]1)c1ccc(Cl)cc1 | 3%
Cc1cc(C)c(S(=O)(=O)Nc2ccc(O)c(-c3c(O)ccc4ccccc34)c2)cc1C | i
CCCCC(=O)Nc1cccc(NC(=S)NC(=O)c2ccc(F)cc2)c1 | 12%
COc1ccc(CCNc2ncnc3ccc(I)cc23)cc1OC | 0%
Cc1c(NC(=O)Nc2ccc(F)c(Cl)c2)cccc1[N+](=O)[O-] | 18%
CC(C)c1nnc(NC(=O)c2cc(Cl)ccc2Cl)s1 | i

# Continued:
SMILES,Mtb H37Rv
CC(=O)c1ccccc1OCc1ccc(S(=O)(=O)Cc2ccccc2)cc1,i
O=C(N1CCOCC1)N1CCN(Cc2ccc3c(c2)OCO3)CC1,i
Cc1ccc(CC(=O)Nc2ccc(I)cc2)cc1,i
CCOc1ccc(S(=O)(=O)NCCOC)cc1C,i
O=C(CSc1nnc2scc(-c3ccccc3)n12)N=C1NC(=O)CS1,i
O=C(Nc1ccc(F)cc1)c1cn(-c2ccccc2)nc1-c1cccc(Br)c1,i
COc1ccc(NC(=O)CCSc2nc3sc4c(c3c(=O)n2-c2ccccc2)CCCC4)cc1,41%
O=C(CSc1ccccc1)Nc1ccc(C(=O)Nc2cccc(O)c2)cc1,i
O=C1c2ccccc2C(=O)N1CCC(=O)N1CCc2ccccc21,i
Cc1ccc(NC(=O)CSc2nnnn2C2CC3CCC2C3)cc1 (stereo not given),i
CCCOc1ccc(-c2nc(SCC(=O)O)n[nH]2)cc1,i
CCOc1c(Br)cc(C2NC(=O)N(C)C(C)=C2C(=O)OC)cc1OC (stereo not given),i
Cc1ccc(C)c(C(=O)Nc2cccc(Br)c2)c1,i
COc1ccc(C(=S)N2CCCC2)cc1OC,i
COc1ccc(Cl)cc1NC(=O)c1ccc(SC)cc1OC,i
O=C(NCc1ccc(Cl)cc1Cl)C1CCN(C(=O)c2ccc(F)cc2)CC1,1%
COc1ccccc1Cc1nc(-c2ccc(OC)c(OC)c2)no1,i
COc1ccc(CNC(=O)CSc2nnc(-c3ccncc3)n2-c2ccc(OC)cc2)cc1,i
COC(=O)c1ccc(NC(=O)c2ccccc2C)cc1,i
COC(=O)c1cn(C(=O)c2ccc(Cl)cc2)c2ccccc12,i
CCC1=Nc2ccccc2-c2nnc(SC)nc2O1,i
N/C(Cc1cccc2ccccc12)=N\OC(=O)Cc1cccs1,7%
CCOc1cc(C)c(S(=O)(=O)N2CCN(C)CC2)cc1C,i
O=C(Nc1ccc2c(c1)OC1(CCCC1)O2)C1CC1,0%
CCOC(=O)N1CCN(C(=O)C2CCN(C(=O)c3ccc(Cl)cc3Cl)CC2)CC1,i
Cc1ccc(CSCC(=O)Nc2c(C)n(C)n(-c3ccccc3)c2=O)cc1,i
CC(Oc1ccccc1Cl)C(=O)c1cccc(Cl)c1 (stereo not given),20%
O=C(CCC(=O)c1ccc(F)cc1)Nc1cc(Cl)cc(Cl)c1,i
CNC(=S)N1CCN(c2ccc([N+](=O)[O-])cc2)CC1,i
CCc1ccc(C(=O)NC(=S)Nc2ccc3c(c2)OCCO3)cc1,i
O/C(=C\c1nncn1-c1ccccc1)c1ccc(O)cc1O,i
CC1(C)CC(=O)C2=C(C1)Nc1nc(SCc3ccccc3F)[nH]c(=O)c1C2c1cccnc1 (stereo not given),3%
C=CCOc1c(Cl)cc(CNc2ncn[nH]2)cc1OC,3%
Cn1c(=O)c2c(nc(N3CCc4ccccc4C3)n2Cc2ccccc2F)n(C)c1=O,i
CN1CCN(c2nc(N3CCN(c4ccccc4)CC3)ncc2F)CC1,i
Cc1ccccc1C(=O)N1CCC(C(=O)Nc2ccc(Oc3ccccc3)cc2)CC1,i
CCCCOc1ccccc1C1C(C(=O)OCC)=CN(C)C=C1C(=O)OCC,i
COc1c(C)cc(S(=O)(=O)NCc2ccccn2)c(C)c1C,i
CCCCC(=O)Nc1ccc(NC(=O)c2ccccc2[N+](=O)[O-])cc1OC,i
COc1ccc(CC(=O)Nc2cc(C(F)(F)F)ccc2Cl)cc1,i
CC12CCC(C(=O)Nc3ccc(F)cc3)(c3nc4ccccc4nc31)C2(C)C (stereo not given),i
CCN(CC)C(=O)CSC1=C(C#N)C(c2ccco2)C(C(=O)OCc2ccccc2)=C(C)N1 (stereo not given),i
CCc1ccccc1NC(=O)COc1ccc(S(=O)(=O)NC2CCCCC2)cc1,i

# Screening results deposited in PubChem by Southern Research Institute.

# An excerpt (hit frequency here may not be typical).
